# From PubChem BioAssay
# FGF22 binding: shifts melting point of recombinant human FGF22; 1.5% of 340,000 active; calls only at 9.99 µM; recombinant FGF22 thermal shift, SYPRO orange fluorescence; percent of sucrose octasulfate shift, DMSO zero;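 active means melting point raised past a set limit in the mean and every replicate; inconclusive means no clear call; three in four hits are not shown here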
# Target sequence (Q9HCT0 whole entry, looked up): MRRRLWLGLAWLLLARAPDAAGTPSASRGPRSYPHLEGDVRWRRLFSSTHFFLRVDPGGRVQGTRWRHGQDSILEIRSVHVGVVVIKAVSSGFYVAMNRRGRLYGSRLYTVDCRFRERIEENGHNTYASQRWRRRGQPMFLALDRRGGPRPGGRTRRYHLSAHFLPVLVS
# T cruzi repl: blocks replication of Trypanosoma cruzi; T. cruzi beta-gal in NIH3T3, luminescence, 90 h; inhibition, % (test concentration not listed); 1.4% of 300,000 active;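 active means mean inhibition across valid replicates above about 55%, limit read from the data; inconclusive means mean below that limit but half or more replicates reach it; inactive means mean below it, under half of replicates reach it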;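 further: signal also drops with host cell toxicity which is not excluded here; 0% = plate median of DMSO wells and 100% = zero luminescence signal; higher percent means less beta-gal luminescence so fewer parasites; stock transfer was 50 nL into about 50 µL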
# Ecoli growth: E. coli growth inhibition | Escherichia coli growth, OD600, 23 h; stronger effect = lower value | OD600 absorbance (no concentration beside the values) | 0.21% of 330,000 active | AID 1053175;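 active means OD600 absorbance below the run mean of sample wells minus 3.6 SD, in any replicate, cut at about 0.56 in these data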;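 further: stock transfer was 300 nL into about 60 µL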
# Bfl-1 A1 inh: inhibitors of the anti-apoptotic protein A1, read as caspase activation; MEF A1-2A-BIM cells, Caspase-Glo 3/7 luminescence, 3 h; percent of clofoctol response, vehicle zero; caspase activation, % (test concentration not listed); 0.066% of 330,000 active; AID 2462;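 active means over half of replicate activation scores above 10%, or exactly half above 10 with the replicate mean above 10; inconclusive means replicate mean below 10 yet half the replicates above 10; inactive means over half of replicates below 10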;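 further: wells of about 30 µL received 50 nL stock; many hits fall short of the cut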
# UCH37 inh: blocks the human deubiquitinase UCH37. AID 588478. purified proteasome/UCH37, Ub-AMC cleavage fluorescence. 0.33% of 330,000 active. inhibition, % (concentration not given with the values). Q9Y5K5;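 active means mean of two replicates above 20%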;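 further: 0% = compound-free wells with enzyme and 100% = wells lacking proteasome; stock transfer was 100 nL into about 20 µL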
# Target sequence (Q9Y5K5 whole entry, looked up): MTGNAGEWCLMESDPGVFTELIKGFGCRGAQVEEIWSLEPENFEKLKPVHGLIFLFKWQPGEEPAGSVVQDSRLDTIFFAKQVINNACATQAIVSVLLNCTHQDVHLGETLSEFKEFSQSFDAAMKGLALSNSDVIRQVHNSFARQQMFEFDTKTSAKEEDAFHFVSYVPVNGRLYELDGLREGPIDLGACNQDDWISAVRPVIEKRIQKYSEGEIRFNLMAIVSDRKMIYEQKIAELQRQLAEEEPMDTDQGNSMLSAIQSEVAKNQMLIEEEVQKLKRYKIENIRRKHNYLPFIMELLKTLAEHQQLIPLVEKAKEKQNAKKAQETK
#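 Schedule: 30 min plus 25 min, room temperature / Material: human UCH37 within purified proteasomes / Technique: AMC fluorescence intensity at 355/460 nm / Buffer or medium: pH 7.4 Tris-HCl (50 mM) with ovalbumin, ATP-MgCl2, DTT / Controls: wells without proteasome as full block, compound-free enzyme plus substrate as uninhibited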
# rRNA inh HTS: inhibits bacterial ribosomal RNA function over humanized ribosomes | GFP signal change (wild-type ribosome), % (no concentration beside the values) | 1.6% of 350,000 active | E. coli WT GFP vs humanized-ribosome RFP mutants, fluorescence, 24 h; stronger effect = lower value; DMSO median 0, no signal -100 | AID 720706;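 active means significant combined selectivity score with lowered wild-type GFP, culture density cut under 30%, mutant RFP and density less affected; inactive means any of these conditions unmet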; further: one replicate is shown; some compounds called inactive have numbers as strong as hits
# Beta cell apopt: beta cell apoptosis inhibition | protection from apoptosis, % (no concentration beside the values) | INS-1E cytokine-induced death, ATP luminescence, 48 h; percent of positive-control rescue, neutral wells zero | 0.8% of 300,000 active | AID 435005;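 active means all replicates at 75% or more, or half of them and the mean; inconclusive means half reach 75% but not the mean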;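 further: 0% = cytokine-treated negative control wells and 100% = positive control rescue; higher means more ATP so stronger rescue from cytokine killing; wells of about 40 µL received 100 nL stock; the first replicate is given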
# AF4-AF9 inh: inhibitors of human MLL-AF4/AF9 interaction | P42568 | AlphaScreen, biotin-AF4 peptide binding to FLAG-AF9 | inhibition, % at 10 µM | 0.47% of 350,000 active | AID 651704;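 active means every replicate reaching a set inhibition limit, whatever the replicate mean, cut at about 25% in these data; inconclusive means mean inhibition reaches that limit but some replicates miss it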;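 further: 0% = plate neutral control median and 100% = total signal loss; the record names both 10 and 1 µM as test concentration; the first replicate is given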
# Target sequence (P42568 whole entry, looked up): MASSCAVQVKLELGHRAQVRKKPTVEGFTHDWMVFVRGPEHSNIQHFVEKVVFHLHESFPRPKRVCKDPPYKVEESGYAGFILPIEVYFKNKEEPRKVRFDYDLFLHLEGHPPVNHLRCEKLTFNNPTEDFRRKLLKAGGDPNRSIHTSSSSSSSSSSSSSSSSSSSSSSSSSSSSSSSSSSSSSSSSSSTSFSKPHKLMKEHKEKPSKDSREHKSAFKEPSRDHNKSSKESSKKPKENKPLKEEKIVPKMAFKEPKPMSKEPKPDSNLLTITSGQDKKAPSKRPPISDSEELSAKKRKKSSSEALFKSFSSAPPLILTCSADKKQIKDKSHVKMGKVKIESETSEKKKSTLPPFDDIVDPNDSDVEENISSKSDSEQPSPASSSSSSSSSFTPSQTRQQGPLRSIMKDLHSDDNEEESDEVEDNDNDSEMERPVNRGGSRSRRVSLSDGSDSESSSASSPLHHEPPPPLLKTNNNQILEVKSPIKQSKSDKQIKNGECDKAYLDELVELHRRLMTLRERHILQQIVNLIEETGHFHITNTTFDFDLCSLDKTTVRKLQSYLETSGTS
# rRNA inh HTS OD600: recorded beside rRNA inh HTS, whose call it bears; OD600 change, %; measured here: OD600 growth;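 optical density of the mix in the first replicate; 0 = DMSO median and -100 = no signal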
# rRNA inh HTS RFP: further read-out of rRNA inh HTS, marked with its call; RFP signal change, %; measured here: RFP humanized mutant strains;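 first replicate; 0 = DMSO median and -100 = no signal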
# Starred values were filed as active, the others as inactive; i = inactive; ? = inconclusive; . = no result given.
SMILES,FGF22 binding,T cruzi repl,Ecoli growth,Bfl-1 A1 inh,UCH37 inh,rRNA inh HTS,rRNA inh HTS OD600,rRNA inh HTS RFP,Beta cell apopt,AF4-AF9 inh
Cc1nc(CC(=O)N/N=C/c2ccc(OCC(=O)O)cc2)cs1,i,1.3,.,0.6,.,8.1,11.5,-0.8,-13.0,1.0
CCN(CC)C(=O)C(Sc1ccccc1)c1ccccc1 (centres undefined),.,1.4,0.63,-0.3,0.4,.,.,.,-10.3,.
Cc1ccccc1CN1CCN(C(C)C(=O)NCc2ccccc2)CC1 (centres undefined),i,16.0,0.689,0.0,-1.8,7.2,9.0,-0.4,0.5,-1.0
Cc1cccc(C)c1NC(=O)/C(C#N)=C/c1ccsc1,.,7.0,0.713,0.9,8.6,.,.,.,-0.5,.
COC(=O)c1ccc2c(=O)[nH]c(CSc3nc(C)cs3)nc2c1,i,-7.1,0.703,-6.6,0.0,0.1,-3.9,-5.0,-0.6,-1.2
CC(C)(C)OC(=O)NC(Cc1ccccc1)C(=O)NC(CSC1CCCCO1)C(=O)NN (centres undefined),i,5.1,0.714,-0.3,1.4,15.6,11.5,-0.4,.,-1.4
CCOC(=O)c1cc(C(=O)Nc2sc3c(c2C#N)CCCC3)nn1C,i,3.2,0.716,-1.3,-93.6,4.8,18.5,0.5,1.9,-0.8
CC12CCC(O)CC1=CCC1C2CCC2(C)C1CCC21CCC(=O)O1 (centres undefined),i,8.2,0.654,1.0,0.1,-23.5,-28.1,-18.4,-0.6,-1.8
O=C(OCC(=O)N1CCN(C(=O)c2ccco2)CC1)c1ccccc1OCc1ccc(Cl)cc1,.,-1.1,0.653,-0.7,2.8,.,.,.,-0.6,.
COC(=O)/C=c1\[nH]c2nnc(C)n2c1=O,i,-5.1,0.657,-0.6,-319.7,7.6,-1.8,0.4,.,1.5
Cc1nnc(Sc2nc3c(c(=O)[nH]c(=O)n3C)n2Cc2ccccc2)s1,i,7.9,0.733,-0.2,4.7,10.0,-4.7,-7.3,4.9,-3.6
O=C(c1ccc(S(=O)(=O)N2CCCCC2)cc1)N1CCN=C1SCc1cccnc1,i,.,0.766,.,7.3,7.8,3.8,-2.1,.,6.3
O=C(O)CCC(=O)NNC(=O)COc1cccc(Cl)c1,i,19.2,0.68,0.8,4.0,13.8,2.8,1.6,-0.3,-1.9
CC(C)(C)OC(=O)C(C)(C)O/N=C(\C(=O)O)c1csc(N)n1,i,-1.1,.,-0.1,.,-0.3,-13.6,0.6,-7.1,-4.2
Cc1cccc(-n2nnnc2SCC(=O)NCC2CCCO2)c1 (centres undefined),i,-22.6,0.676,0.3,2.9,4.1,-3.6,-6.2,-6.0,0.8
Cn1c(N)c(C(=O)COC(=O)C2CC(=O)N(Cc3ccccc3)C2)c(=O)n(C)c1=O (centres undefined),i,-2.9,0.693,-0.5,4.2,4.0,14.1,-0.3,-2.9,2.1
CC1CCCN(C(=O)c2nn(C)c3c2CSc2ccccc2-3)C1 (centres undefined),i,1.2,0.759,0.0,1.1,4.6,-4.3,-0.2,-1.8,-1.7
COc1ccc(NS(=O)(=O)c2cccc(C(=O)NNC(=O)CNC(=O)c3ccccc3F)c2)cc1,.,0.5,0.711,-0.4,1.8,1.3,2.2,1.5,.,-0.6
CCOc1ccc(CCNC(=O)c2ccc(CS(=O)Cc3cccc(Cl)c3)o2)cc1 (centres undefined),i,9.4,0.683,-0.7,1.2,-41.7,-36.3,-4.6,-0.2,-1.6
Cc1ccc(-n2c3c(cc(C(=O)NC4CCSC4=O)c2=O)C(=O)CCC3)cc1 (centres undefined),.,-0.7,0.747,0.5,-7.7,.,.,.,0.0,.
O=C(Oc1c(Cl)cc(Cl)c2cccnc12)c1cccs1,.,75.3*,0.141*,0.1,5.5,.,.,.,75.0*,.
CCC(=O)N=c1sc2cc([N+](=O)[O-])ccc2n1CCOC,.,30.8,0.697,-1.0,6.5,.,.,.,-6.1,.
CCOC(=O)CNC(=O)c1c(C)nn(-c2ccccc2)c1Cl,.,-5.6,0.732,0.6,0.9,.,.,.,3.4,.
N#C/C(=C\c1ccc(Cl)cc1)c1nc2ccccc2o1,.,-21.6,.,-2.3,-8.6,.,.,.,-2.9,.
CC(C(=O)Nc1ccc2c(c1)OCO2)N(c1ccc(Cl)cc1)S(C)(=O)=O (centres undefined),.,-5.4,0.695,-0.5,6.9,.,.,.,-3.9,.
CCN(CC)N=Nc1cccc(NC(C)=O)c1,i,2.2,0.712,0.2,7.9,-2.8,-0.5,-2.6,1.4,0.6
C=CC[C@H](CC(=O)N[C@H](CO)Cc1ccccc1)C(=O)N[C@@H](COC(=O)[C@H](CC=C)CC(=O)OC(C)(C)C)Cc1c[nH]c2ccccc12,i,.,.,-0.8,5.8,3.7,1.6,-0.9,-0.9,5.0
Cc1ccc2[nH]c(C(=O)N/N=C/c3ccccc3O)c(C)c2c1,i,70.4*,.,-0.7,.,4.8,5.4,-1.9,86.0*,-26.9
Cn1c(/C=N/NC(=O)c2ccccc2)nc2ccccc21,i,-16.7,.,0.4,.,10.7,6.0,5.9,7.3,-41.8
O=C(O)c1cc(NN=C2CCN(Cc3ccccc3)CC2)ccc1Cl,i,20.0,0.706,0.2,-1.1,1.4,7.6,-1.8,-6.7,2.8
NC(=O)c1c(NC(=S)Nc2ccccc2)sc2c1CCCC2,i,3.0,0.675,1.1,-24.2,-39.6,-46.0,-4.1,2.6,-3.3
CN1C[C@@H]2C(c3ccccc3)C3(c4ccc(C#N)cc4)CC2(C3)[C@H]1c1ccccc1 (some centres undefined),i,27.2,.,-0.3,2.3,-3.9,-9.6,-2.0,14.0,1.1
C#CCNC(=O)C1=C[C@@H](c2cn(C(C)=O)c3ccccc23)C[C@@H](OCc2ccc(CO)cc2)O1,i,-19.7,.,0.3,0.1,8.7,11.0,5.4,7.3,-2.6
O=c1[nH]cnc2onc(-c3ccc(F)cc3)c12,i,-5.9,0.648,?,2.3,0.7,5.5,0.7,-1.1,0.8
Cn1nnnc1SCc1cccc2ccccc12,i,15.1,0.73,0.1,2.1,-15.4,-14.6,0.7,-6.8,2.3
O=C(NC(NC(=S)Nc1c(Cl)cc(Cl)cc1Cl)C(Cl)(Cl)Cl)OCc1ccccc1 (centres undefined),i,73.8*,.,-0.3,3.1,-19.9,-2.2,10.2,44.3,-3.0

# Overlap with the part before: two compounds; new compounds follow.
SMILES,FGF22 binding,T cruzi repl,Ecoli growth,Bfl-1 A1 inh,UCH37 inh,rRNA inh HTS,rRNA inh HTS OD600,rRNA inh HTS RFP,Beta cell apopt,AF4-AF9 inh
Cn1nnnc1SCc1cccc2ccccc12,i,15.1,0.73,0.1,2.1,-15.4,-14.6,0.7,-6.8,2.3
O=C(NC(NC(=S)Nc1c(Cl)cc(Cl)cc1Cl)C(Cl)(Cl)Cl)OCc1ccccc1 (centres undefined),i,73.8*,.,-0.3,3.1,-19.9,-2.2,10.2,44.3,-3.0
CC(=O)Nc1ccc(Nc2cc(C)nc3c(-c4ccccc4)c(C)nn23)cc1,.,47.9,0.663,0.1,-126.0,.,.,.,2.6,.
COc1ccc(C2=Nn3c(nnc3C(F)(F)F)SC2)cc1,i,-2.8,0.676,-1.0,2.9,-3.8,6.0,-1.2,1.0,-0.4
CCC(C)c1ccc(NC(=O)COC(=O)C2CCCC2)cc1 (centres undefined),i,.,0.67,-1.4,0.2,-12.6,-4.4,2.9,7.7,-1.3
CCC(C)[C@H](NC(=O)NCc1ccc(Cl)cc1)C(=O)OC (some centres undefined),.,1.2,0.711,1.2,1.4,.,.,.,-2.0,.
CCCOC(=O)c1cc(-c2ccc(C=O)o2)ccc1Cl,i,-21.8,0.686,0.6,-1.2,.,.,.,-2.5,-1.9
CC(=O)Nc1ccc(NS(=O)(=O)c2ccc3c(c2)NC(=O)CC(=O)N3)cc1,i,20.1,0.661,1.2,0.0,6.5,11.8,25.4,-4.4,0.9
COC1(NC(=O)c2ccccc2)C(C)=CC(=O)C=C1C,i,-2.8,0.705,-0.2,2.7,9.3,15.9,2.0,-4.0,-1.3
CCOC(=O)COc1ccc(S(=O)(=O)Nc2ccc(C)cc2)cc1,.,-2.8,0.728,0.8,4.2,.,.,.,-6.3,.
O=C1NN(c2ccc(F)c(Cl)c2)C(=O)/C1=C\c1cccc(OC(=O)c2cccs2)c1,.,6.1,0.715,0.5,8.3,.,.,.,-4.6,.
CC(=O)c1cccc(NC(=S)NC(=O)Cc2ccc(Cl)cc2)c1,i,-8.4,0.645,0.0,4.7,-7.7,-2.2,-0.5,-3.5,-0.6
CCc1c(C)nc2cc(-c3cc(OC)cc(OC)c3)nn2c1N1CCCC1,i,26.1,0.696,-0.2,-7.6,2.9,4.6,2.7,9.7,5.3
COc1cc(C(C)=O)ccc1COc1ccc(C(=O)OCC(N)=O)cc1OC,.,10.3,0.611,0.9,0.5,.,.,.,-2.1,.
O=c1cc(-c2ccccc2)nc(SCc2ccccc2F)[nH]1,i,0.4,0.665,-0.2,0.5,14.5,8.9,-10.6,-1.1,-2.0
CC(C)(C)C1CCC(=NNC(=S)NCc2ccccc2)CC1 (centres undefined),i,-4.5,0.685,-0.4,4.3,-10.0,-11.8,-2.7,-0.3,1.3
CC(C)OC(=O)c1ccc(OC(=O)c2cccnc2)cc1,.,10.4,0.712,0.9,1.2,-1.8,2.0,-3.0,0.6,.
COc1cccc(C(C(=O)NC2CCCCC2)N(C(=O)c2ccco2)c2ccc(-n3cnnn3)c(C)c2)c1 (centres undefined),.,-6.0,0.766,-1.2,4.6,.,.,.,3.1,.
N#CC1=C(N)C(C#N)(C#N)[C@H](c2ccncc2)[C@H]2CN(C(=O)OCc3ccccc3)CC=C12,.,7.5,0.731,-0.1,-32.6,.,.,.,1.6,.
S=c1[nH]nc(-c2ccco2)n1Cc1ccccc1,.,.,0.711,1.2,0.2,.,.,.,-6.0,.
COc1ccccc1N1CCN(C(=O)CCc2ccc(S(=O)(=O)NC(C)C)cc2)CC1,.,5.5,0.731,-0.6,0.6,.,.,.,-2.0,.
O=C(Cc1c(F)cccc1Cl)Nc1ccccn1,i,1.4,0.621,1.0,0.4,8.5,20.8,-0.1,-4.0,-6.1
Cc1cccc(NC(=O)C2(c3cccs3)CCOCC2)c1,.,-8.0,0.7,0.5,-2.4,.,.,.,-7.7,.
Cc1cc(-c2ccccc2)n2nc(C)c(C#N)c2n1,.,-4.6,0.664,0.2,-129.7,.,.,.,.,.
Cc1ccc(NC(=O)Nc2ccc3c(c2)OCO3)cc1F,i,11.0,0.703,0.0,5.5,7.6,18.2,1.5,-17.2,-2.1
N#Cc1ccc(-c2cccnc2)nc1SCC(=O)Nc1sc2c(c1C#N)CCC2,i,-3.8,0.729,-0.4,6.3,-17.7,-19.1,7.6,0.8,-1.5
Cc1ccc(C)c(C(=O)CN2C(=O)NC3(CCc4ccccc43)C2=O)c1 (centres undefined),i,.,0.695,-0.6,2.6,-17.6,-23.7,-4.7,-1.2,-5.8

# Only part of the results is shown; rates above refer to the full screens.
